# Bioassay records (PubChem BioAssay)
# D2 agonist: Beta-Arrestin HTS for Positive Allosteric Modulators of the Human D2 Dopamine Receptor: Agonists | D(2) dopamine receptor (Homo sapiens), P14416 | DiscoveRx PathHunter D2 beta-arrestin, luminescence, 90 min; 100% = 57 uM dopamine signal | activation, % (no concentration beside the values) | hit rate 0.084% among 360,000 | AID 624465, 2012; in the data active = activation above about 40%; inconclusive = about 15% to 40%; inactive = below about 15%; note: compound concentration not given in the record; the text of the record calls up to 30% inactive
# Target sequence (P14416 whole entry, looked up): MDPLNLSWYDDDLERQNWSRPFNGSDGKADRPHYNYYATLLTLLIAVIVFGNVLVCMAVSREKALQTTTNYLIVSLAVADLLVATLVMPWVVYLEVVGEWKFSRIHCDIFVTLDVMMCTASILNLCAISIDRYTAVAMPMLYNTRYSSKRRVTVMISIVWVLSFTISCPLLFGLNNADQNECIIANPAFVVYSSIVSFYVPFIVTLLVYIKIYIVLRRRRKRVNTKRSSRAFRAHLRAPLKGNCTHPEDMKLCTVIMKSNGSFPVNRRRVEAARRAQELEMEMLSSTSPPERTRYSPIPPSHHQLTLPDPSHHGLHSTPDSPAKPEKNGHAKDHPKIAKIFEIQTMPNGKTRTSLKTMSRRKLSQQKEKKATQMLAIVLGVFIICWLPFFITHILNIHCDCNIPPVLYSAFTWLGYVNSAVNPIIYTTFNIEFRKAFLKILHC
#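 DiscoveRx PathHunter D2 beta-arrestin cells (2,100/well) attached overnight, then compound-stimulated 90 min at 37 C in HBSS/10 mM HEPES/0.1% Tween-20 buffer; beta-galactosidase complementation read by luminescence after 1 h at ambient temperature. Dopamine 57 uM final (EC100) as control.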
# Six1-Eya2 inh: qHTS Assay for Inhibitors of the Six1/Eya2 Interaction; hit rate 0.56% among 360,000; Homeobox protein SIX1 (Homo sapiens) + Protein phosphatase EYA2 (Homo sapiens), …; AlphaScreen GST-Six1/His-Eya2 binding, biochemical; stronger effect = lower value; control for the full effect not named in the record; AID 651725, 2012; activity change, % (concentration not given with the values); in the data active = activity change below about -65%; inconclusive = about -30% to -65%; inactive = above about -30%; note: % is set by controls: 0 for no effect and ±100 for the full control effect
#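 AlphaScreen luminescence read after one hour at 37 °C in darkness. Pin-transferred compounds met GST-Six1 and His-Eya2 protein (5X stock 250 nM/500 nM) plus glutathione donor and Ni-chelate acceptor beads (5X, 50 ug/mL).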
# TRPML1 inh: qHTS for Inhibitors of the Human Mucolipin Transient Receptor Potential 1 (TRPML1); Mucolipin-1 (Homo sapiens), Q9GZU1; TRPML1-inducible cells, Ca2+ dye fluorescence, FDSS; stronger effect = lower value; inhibition of EC80 agonist-evoked calcium signal; activity change, negative = inhibition, % (test concentration not listed); hit rate 0.02% among 390,000; in the data active means activity change below about -50%; inconclusive means about -30% to -50%; inactive means above about -30%;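 note: stimulus is agonist 54-4 at its EC80 concentration; % is set by controls: 0 for no effect and ±100 for the full control effect; compound concentration not given in the record; the text of the record puts the active cut at -80%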
# Target sequence (Q9GZU1 whole entry, looked up): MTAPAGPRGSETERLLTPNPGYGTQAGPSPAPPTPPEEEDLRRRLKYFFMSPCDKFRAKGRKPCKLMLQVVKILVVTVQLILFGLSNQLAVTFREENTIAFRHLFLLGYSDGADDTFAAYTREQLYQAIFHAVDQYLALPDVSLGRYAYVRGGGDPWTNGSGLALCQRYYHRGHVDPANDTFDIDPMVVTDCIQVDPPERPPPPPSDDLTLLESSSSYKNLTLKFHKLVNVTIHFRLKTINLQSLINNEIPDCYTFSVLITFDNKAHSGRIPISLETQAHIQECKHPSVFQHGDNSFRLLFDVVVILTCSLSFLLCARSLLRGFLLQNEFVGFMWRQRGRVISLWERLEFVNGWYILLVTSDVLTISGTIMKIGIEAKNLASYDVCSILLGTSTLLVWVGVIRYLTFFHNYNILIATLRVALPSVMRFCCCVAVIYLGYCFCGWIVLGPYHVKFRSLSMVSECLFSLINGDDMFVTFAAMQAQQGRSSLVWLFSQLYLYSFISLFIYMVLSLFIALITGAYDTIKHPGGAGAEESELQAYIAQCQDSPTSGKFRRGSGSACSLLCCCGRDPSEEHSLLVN
#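 Calcium fluorescence in TRPML1-DL cells induced overnight with Tet: a 110 s read after compound pin addition, then a 110 s antagonist read after challenge with 54-4 at 4 uM final (EC80).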
# TRPML1 ag: qHTS for Agonists of the Human Mucolipin Transient Receptor Potential 1 (TRPML1); Mucolipin-1 (Homo sapiens), Q9GZU1; TRPML1-expressing cells, Ca2+ dye fluorescence, FDSS; host cell line not named in the record; reference of the full effect not given here; activation, % (test concentration not listed); hit rate 0.12% among 410,000; AID 624414, 2012; in the data active = activation above about 50%; inconclusive = about 30% to 50%; inactive = below about 30%; note: 0% is about no effect; the text of the record puts the active cut at 80%
#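 Calcium fluorescence on an FDSS kinetic reader gave the read-out. Tet-induced TRPML1-DL cells were plated overnight, dye-loaded (Ca8 with quencher, 45-90 min, room temperature, dark), then read 110 s after compound addition, and again 110 s after 4uM final 54-4 (EC80).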
# PINK1 modulator: A Quantitative High throughput Screen to Identify Chemical Modulators of PINK1 Expression; PINK1 immunofluorescence, high-content cytometry, 24 h; Potency, µM (series often up to 76.6 µM), without a hit: top-dose activation (PINK1 increase), usual class: activators; hit rate 0.2% among 410,000; AID 624263, 2012; active = well fitted activation curve with a large enough effect; inconclusive = small, poorly fitted or top-dose-only effect; inactive = flat fitted curve, though single readings scatter; cell line not stated here;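 note: potency is the fitted concentration of half-maximal effect; % of control where 0% means no effect; nearly all actives have a fitted effect of over 65% in size; a mitochondrial uncoupler was the plate control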
#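 Stable cell line treated 24 h with compounds at 5 concentrations (CCCP controls), then fixed and immunostained for PINK1 plus nuclear and cell stains; PINK1 immunofluorescence quantified by laser-scanning microplate cytometry.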
# D2 potentiator: Beta-Arrestin HTS for Positive Allosteric Modulators of the Human D2 Dopamine Receptor: Potentiators; AID 624464, 2012; D(2) dopamine receptor (Homo sapiens), P14416; potentiation, % (test concentration not listed); DiscoveRx D2 beta-arrestin cells, luminescence, 90 min; 100% = 57 uM dopamine signal; hit rate 0.23% among 360,000; active = potentiation of 50% or more; inconclusive = 30% to 50%; inactive = 30% or less;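 note: compound concentration not given in the record; tested on top of an EC20 dose of dopamine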
#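 PathHunter beta-arrestin assay in DiscoveRx D2 cells. Compounds were added with an EC20 of dopamine (50 nM final) for 90 min at 37 deg C. Luminescence was read 1 h after detection reagent, with 57 uM dopamine as the EC100 control.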
# * hit, by the source's call; ? = inconclusive; · = not tested or not shown; [ ] = another dose, or the depositor's remark. Compounds were not picked by outcome, and some 1% of all compounds hit somewhere here.
SMILES,D2 agonist,Six1-Eya2 inh,TRPML1 inh,TRPML1 ag,PINK1 modulator,D2 potentiator
CCN(CC)C(=O)COC(=O)C1=NN(c2cc(C)ccc2C)C(=O)CC1,-2.2,5.4,-8.7,-0.7,-0.2%,-3.0
CNC(=O)c1ccc(CNC(=O)OCC(F)(F)F)cc1,-2.4,4.8,-6.8,0.4,2.7%,0.5
C/C(=N\NC(=O)c1ccc(Cl)cc1)c1ccccn1,-12.6,-89.7*,46.4,2.2,-0.7%,-18.3
CN=C1S/C(=C\c2ccc(N3CCOCC3)c(F)c2)C(=O)N1C,-0.3,5.2,0.6,0.9,1.7%,1.5
O=C(NCCOc1cccc(Oc2ccccc2)c1)c1cc(-n2cnnc2)ccc1Cl,1.5,1.7,35.1,1.1,-4.2%[38.3 µM],5.6
CC(=O)O[C@@]1(C)C[C@@H](O)[C@]2(O)C=CO[C@@H](O[C@@H]3O[C@H](CO)[C@@H](O)[C@H](O)[C@H]3O)[C@@H]21,-3.3,3.7,1.1,-0.1,1.4%,-4.0
COc1cc([C@@H]2CC=C(C(=O)O)CN2S(=O)(=O)c2ccc(C)cc2)cc(OC)c1OC,2.0,-10.1,-10.7,-0.4,-1.4%,-8.2
O=C(CCCCn1c(=O)c2ccccc2n(CC(=O)Nc2ccc(F)cc2F)c1=O)NCCc1ccccc1,·,·,5.0,-0.6,4.0%,·
Cc1ccc(NC(=S)Nc2cccc(S(=O)(=O)Nc3c(C)n(C)n(-c4ccccc4)c3=O)c2)cc1,0.0,-13.9,22.3,-0.6,2.7%,-1.9
Cc1cc2oc(=O)cc(Cn3ccnc3)c2cc1O,4.0,0.2,7.9,1.6,1.3%,-4.1
C=CCC(c1ccccc1F)N(CCN1CCOCC1)C(=O)Nc1cccc(Cl)c1 (stereo unspecified),0.8,-1.9,9.4,2.2,·,-9.8
CCOC(=O)c1c(N)sc(C(=O)N2CCCC2)c1C,-1.6,4.0,-9.9,1.7,-2.2%,3.6
COC(=O)c1cc(NC(=O)CN(C)Cc2ccccc2)cc(C(=O)OC)c1,-0.5,-7.9,2.2,2.0,-0.6%,-1.0
Cc1ccn2c(Nc3ccc4c(c3)OCO4)c(-c3ccccn3)nc2c1,-9.7,-87.9*,-17.9,2.7,39.8µM*,-16.1
Cc1onc(-c2ccccc2)c1C(=O)Nc1ccc(N2CCOCC2)cc1,-4.1,0.0,-5.3,-0.2,-2.2%,2.9
Fc1cccc2sc(N3CCCCC3)nc12,2.5,-0.3,11.3,0.0,-0.9%,-3.2
Cc1cc(C)n(-c2nc3c(c(=O)n(C)c(=O)n3C)n2C)n1,-5.1,7.8,34.2,-0.6,-1.0%,-16.5
O=C(NC(=S)NCCC1=CCCCC1)c1ccccc1Br,4.7,-0.9,-7.9,0.5,23.4%,3.5
CCOC(=O)c1c(C)oc2ncnc(Nc3ccc(OCC)cc3)c12,·,·,1.9,-0.5,1.8%,·
COc1ccc(/C=C(\NC(=O)c2ccco2)C(=O)NC(Cc2ccccc2)C(=O)O)cc1 (stereo unspecified),4.5,8.5,-5.6,0.5,0.2%,19.1
C[C@@H]1CN([C@@H](C)CO)C(=O)c2cc(Br)cnc2O[C@H]1CN(C)C(=O)c1ccc2c(c1)OCO2,-3.9,-1.9,-2.7,-0.1,0.6%,0.3
COc1ccc(C(=O)NN=C2CCCC2)cc1OC,-4.5,-4.6,10.8,0.5,2.9%,6.3
Cc1ccc(CC(SCc2ccccc2)C(=O)O)cc1C (stereo unspecified),-0.1,-5.1,-16.9,-0.1,-0.7%,11.9
Cc1ccc(C)c(-c2nc(Cn3c(=O)cc(-c4ccccc4)c4c(C)nn(C)c43)c(C)o2)c1,·,·,17.2,0.7,2.7%,·
N#C/C(=C\c1c[nH]c2ccccc12)C(=O)NC1CC1,2.1,-3.3,-9.8,2.7,-0.7%,-0.3
COC(=O)c1ccc(OCC(=O)c2ccc(C)c(C)c2)cc1,0.2,38.6,-22.9,3.8,4.2%,-12.7
COC(=O)[C@H](C(C)C)N(Cc1ccccc1)S(=O)(=O)CCNC1CCCC1,-1.7,6.5,4.8,0.2,6.9%,-20.3
Cc1nc(NC(C)c2ccccc2)c2c3c(sc2n1)CCC3 (stereo unspecified),1.3,-2.2,-9.0,8.2,0.8%,8.2
CCC(C)NC(=O)C1CCC(CNS(=O)(=O)c2ccc(Cl)cc2)CC1 (stereo unspecified),·,·,23.2,0.6,-0.6%,·
Cc1ccc(NC(=S)N/N=C/c2ccc([N+](=O)[O-])s2)cc1,-3.9,?,-3.7,3.2,?,-16.8
O=C(COC(=O)c1cccc(S(=O)(=O)N2CCOCC2)c1)Nc1nc(-c2ccccc2Cl)cs1,5.5,-1.9,-5.4,-0.2,-1.0%,2.1
COc1ccc2oc(C(=O)OCC(=O)N(C)c3c(N)n(Cc4ccccc4)c(=O)[nH]c3=O)c(C)c2c1,-5.3,-0.6,4.1,-0.5,3.7%,-23.3
CSCC[C@H](NC(=O)C1CCN(S(=O)(=O)c2ccc(C)cc2)CC1)C(=O)NCc1ccco1,-1.2,-5.7,-27.9,6.0,0.2%,-0.4
CN(C)CCN(C)c1cc2c(c3c1ccn3C)C1CCC2O1 (stereo unspecified),-2.9,-5.8,25.2,0.1,1.0%,-3.6
COc1ccccc1Cn1c(CNS(=O)(=O)c2ccc(Cl)s2)nc2cccnc21,·,·,-9.5,1.1,1.9%,·
CC1(C)C(C=C(Cl)Cl)C1C(=O)NC(O)C(=O)c1ccccc1 (stereo unspecified),1.1,0.1,11.8,-0.5,3.0%,-4.4
CCn1nnnc1NCc1ccc(OCc2c(F)cccc2Cl)c(OC)c1,-3.0,5.3,2.9,-0.8,1.7%,-6.6
CCCn1c(SCC(=O)NC2CC2)nnc1-c1ccccn1,-0.9,1.0,8.2,-0.1,0.2%,-2.9
CCSC1=NC(=O)/C(=C2/C=Cc3ccccc3N2CC)S1,-7.7,-79.1*,-2.6,-0.4,-2.8%,-21.0
C/C(=N\NC(=O)c1ccc(-c2ccccc2)cc1)c1cccc(N)c1,1.0,-1.5,-2.5,-0.1,-0.3%,0.1
CC[C@@H](NC(=O)Cn1cc(C)c(=O)[nH]c1=O)c1ccccc1,-4.9,6.1,0.7,-0.9,-0.7%,-4.4
NCCCCCc1nnc(SCC(N)=O)o1,-10.1,-10.3,9.1,0.7,-0.7%,0.4
O=S(=O)(Nc1ccc(-c2ccc(N3CCOCC3)nn2)cc1)c1cc(Cl)ccc1Cl,2.8,-14.2,-4.8,1.0,1.9%,-0.7
Cc1cc(C)cc(NC(=O)C2CCCN2S(=O)(=O)c2ccc3c(c2)CCCC(=O)N3)c1 (stereo unspecified),·,·,18.7,0.2,1.5%,·
O=C(Cn1c(=O)oc2cc(S(=O)(=O)NCc3ccccc3)ccc21)NCc1ccccc1Cl,·,·,-22.3,0.1,-1.8%,·
COC(=O)Cc1ccc(NC(=S)NCc2ccccc2OC)cc1,-4.3,3.2,2.4,0.9,0.5%,-7.4
Cc1ccc(C23CCC(=O)N2C(C(=O)O)CS3)c(C)c1 (stereo unspecified),-1.9,10.3,-5.2,0.2,3.9%,-6.5
Oc1c(C(c2ccc(F)cc2)N2CCN(Cc3ccccc3)CC2)sc2nc(-c3ccco3)nn12 (stereo unspecified),·,·,4.9,2.9,1.9%,·

# 3 entries already listed, sorted by the number in D2 potentiator, high to low:
SMILES	D2 potentiator
NCCCCCc1nnc(SCC(N)=O)o1	0.4
O=S(=O)(Nc1ccc(-c2ccc(N3CCOCC3)nn2)cc1)c1cc(Cl)ccc1Cl	-0.7
CC[C@@H](NC(=O)Cn1cc(C)c(=O)[nH]c1=O)c1ccccc1	-4.4

# Remaining list, next part:
SMILES,D2 agonist,Six1-Eya2 inh,TRPML1 inh,TRPML1 ag,PINK1 modulator,D2 potentiator
CCCCN(C(=O)c1cccc(S(=O)(=O)N(CC)c2ccccc2)c1)c1c(N)n(CC(C)C)c(=O)[nH]c1=O,3.2,-1.1,4.6,-0.4,8.1%,-3.8
Cc1ccsc1C(=O)Nc1ccccc1N1CCOCC1,-3.0,0.3,-17.2,1.7,-3.1%,10.3
CC(C)CNC(=O)COC(=O)c1cccc(S(=O)(=O)NCC(F)(F)F)c1,-1.8,1.4,1.7,-0.5,0.0%,-7.9
Cc1cc(C)c2c(N)c(C(=O)NN3CC(=O)N(c4ccccc4F)CC3=O)sc2n1,-1.6,-1.8,17.8,-1.1,-0.4%,-0.8
C[C@@H]1CN([C@@H](C)CO)C(=O)CCCn2nncc2CO[C@@H]1CN(C)S(=O)(=O)c1ccccc1,3.9,20.1,-10.3,-0.5,-1.7%,-4.0
CCCCOc1ccc(C(=O)N2CCN(c3ccc(N4CCOCC4)nn3)CC2)cc1,1.8,6.0,5.6,1.9,1.3%,0.4
CCOC(=O)c1ccccc1NC(=O)Cn1nnc2sc3c(c2c1=O)CCCC3,·,·,-14.8,1.3,1.1%,·
CCn1cc(CNC(=O)c2cc(-c3ccc(C)cc3)nc3ccc(Br)cc23)c(C)n1,·,·,8.5,-0.1,-0.5%,·
CCC(C(=O)Nc1ccsc1C(=O)OC)c1ccccc1 (stereo unspecified),2.1,10.6,10.7,2.4,6.3%,-0.3
COC1(c2ccccc2)NC(=S)NN=C1c1ccccc1 (stereo unspecified),-5.4,?,17.5,0.2,8.4%,-9.2
COc1ccc(CN2CCOCC2)cc1OC,-1.2,-0.6,7.3,-0.7,-0.1%,-30.7
CCCCCC(=O)Nc1c(-c2cccs2)c(=O)c2ccccc2n1C,0.1,1.0,10.7,-0.2,9.6%[38.3 µM],0.4
Cc1ccc2nc(N(CCCN(C)C)C(=O)c3cc4ccccc4oc3=O)sc2c1,-4.4,0.8,53.2,1.0,4.9%,-22.8
COc1ccc(C(=O)NC(Nc2ccccc2)C(Cl)(Cl)Cl)cc1 (stereo unspecified),0.5,2.7,-7.4,0.5,5.3%,-2.3
Cc1c(/N=C/c2ccco2)n(Cc2ccccc2)c2ccccc12,-5.2,?,0.3,-0.3,3.3%,0.2
